Biofilm kill mix – mixture kills Candida albicans biofilm cells. C. albicans biofilm persisters + clotrimazole, fluorescence viability; primary screen in compound mixtures of four per well. inhibition, % at 7.6 µM. actives 0.02% (n = 120,000). AID 1242;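 active = inhibition above 30.3% in the primary screen of four-compound pools, then above 30% when the compound was retested; inconclusive = passed the primary limit but could not be retested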;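 also: compounds exposed to preformed 24 h biofilms for 48 h; the number belongs to the whole pool; some results filed as inactive read as strong as hits; inactives centre near 12; 0% = biofilm with clotrimazole alone and 100% = kill control; retested singly at about 60 µM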
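System: C. albicans CAF4-2 wild-type biofilms; Medium: RPMI/MOPS medium, pH 7.0; Reagent: Clotrimazole, 50 µg/mL; Times: biofilm formation 24 h, compound exposure 48 h, 37 °C; Detection: 2-h Alamar Blue fluorescence, 535/590 nm excitation/emission; Evaluation: percent inhibition of biofilm viability.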
* hit, by the source's call; & = joins results of further samples. Not all compounds are listed; rates above refer to the full screens.

What do the screens show for `N#CC(c1ccccc1)N1CCOCC1` (stereo not given)?
Biofilm kill mix: 17

How did OC(CNC1CCCCCCC1)c1ccccc1 (stereo not given) do in these assays?
Biofilm kill mix: -12

How did COc1cc(/C=C2/C(=O)NC(=O)N(c3ccc(C)cc3)C2=O)cc(OC)c1OC do in these assays?
Biofilm kill mix: 26

What do the screens show for `COc1ccc(CCNCc2cccc(C(F)(F)F)c2)cc1OC`?
Biofilm kill mix: 15

What do the screens show for `CC1=CC(=C2C(=O)NC(=O)NC2=O)C=C(C(F)(F)F)N1Cc1ccccc1`?
Biofilm kill mix: 12

What do the screens show for `O=C1NC(=O)N(Cc2ccccc2Cl)C(=O)/C1=C/c1cccs1`?
Biofilm kill mix: 20

Results for CCC(=NCCN1CCOCC1)c1c(O)n(C2CCCCC2)c(=O)[nH]c1=O ?
Biofilm kill mix: 21

What do the screens show for `NC1C2CN3CCN(C2)CC1(c1ccccc1)C3` (stereo not given)?
Biofilm kill mix: 11

What do the screens show for `O=C1NC(=O)N(c2ccccc2)C(=O)/C1=C\c1ccc([N+](=O)[O-])s1`?
Biofilm kill mix: 26

How did Nc1ccc(Cl)cc1C(=O)c1ccccc1Cl do in these assays?
Biofilm kill mix: 4

Results for COc1ccccc1CCNC1CCCC(C)C1 (stereo not given) ?
Biofilm kill mix: 9

Results for Cc1ccc(C2N(c3ccccn3)C(=O)C3CCCN32)o1 (stereo not given) ?
Biofilm kill mix: 7

How did C=CCn1c(O)c(C(C)=NC(C)c2ccccc2)c(=O)[nH]c1=O (stereo not given) do in these assays?
Biofilm kill mix: 16

Results for Cc1ccc(-n2c(O)c(/C=N/N3CCCCC3c3cccnc3)c(=O)[nH]c2=S)cc1 (stereo not given) ?
Biofilm kill mix: 14

What do the screens show for `CC1CCCN(C(=O)c2ccc(N3CC4CC(C3)c3cccc(=O)n3C4)c([N+](=O)[O-])c2)C1` (stereo not given)?
Biofilm kill mix: 12

Results for CCOc1ccccc1N1C(=O)NC(=O)C(CCc2ccncc2)(CCc2ccncc2)C1=O ?
Biofilm kill mix: 10

Results for N#CSCC(=O)N1c2ccccc2CCc2ccccc21 ?
Biofilm kill mix: 3

How did COc1ccc(C(C)=O)cc1CC(C(=O)c1ccc(F)cc1)N(C)C (stereo not given) do in these assays?
Biofilm kill mix: 6

Results for Cc1ccc(/C=C2\C(=O)NC(=O)N(CC3CCCO3)C2=O)s1 (stereo not given) ?
Biofilm kill mix: 25

Results for Cc1cc(C)nc(NS(=O)(=O)c2ccc(N=Cc3c(O)n(C)c(=O)n(C)c3=O)cc2)n1 ?
Biofilm kill mix: 1

Results for COc1ccc(NP(=O)(Nc2ccc(OC)cc2)Oc2ccccc2)cc1 ?
Biofilm kill mix: 23

How did CN1Cc2cccnc2N(C)Cc2cc(Cl)ccc21 do in these assays?
Biofilm kill mix: 14

What do the screens show for `COc1cc2c(cc1OC)-c1c(OC)c(OC)cc3c1[C@H](C2)[N+](C)(C)CC3`?
Biofilm kill mix: 15

Results for COc1ccc(NC(=O)c2cn(CCC#N)nc2-c2ccc([N+](=O)[O-])cc2)cc1 ?
Biofilm kill mix: 9

What do the screens show for `C=CCn1c(O)c(C(CC)=Nc2ccc(C(=O)O)cc2)c(=O)[nH]c1=O`?
Biofilm kill mix: 13

What do the screens show for `Cc1nn(Cc2ccccc2Cl)c(Cl)c1C(=O)O`?
Biofilm kill mix: 11

Results for CNCCc1ccc(OC)c(OC)c1 ?
Biofilm kill mix: 7

How did CSc1ncc(/C=C2/C(=O)NC(=O)N(c3ccc(C(C)C)cc3)C2=O)cn1 do in these assays?
Biofilm kill mix: 18

How did O=c1[nH]c(O)c(/C=C2/C=CC(c3cc(Cl)ccc3Cl)=N2)c(=O)[nH]1 do in these assays?
Biofilm kill mix: 5

How did C[N+](C)(C)Cc1ccccc1 do in these assays?
Biofilm kill mix: 16

What do the screens show for `Cc1ccccc1C1=NCC(=S)Nc2ccc(Cl)cc21`?
Biofilm kill mix: 20

How did Cc1cc(C=C2C(=O)N(C)C(=O)N(C)C2=O)c(C)n1-c1ccccc1 do in these assays?
Biofilm kill mix: 16

Results for CN(C)c1ccc(/C=C/[N+](=O)[O-])cc1 ?
Biofilm kill mix: -1

Results for CCn1c(=N)n(Cc2ccccc2F)c2ccccc21 ?
Biofilm kill mix: 16

What do the screens show for `Cc1cccc(-n2c(-c3ccco3)nc3ccccc3c2=O)c1C`?
Biofilm kill mix: 9

Results for COc1ccc(CN2C(=O)NC(=O)/C(=C/c3cc(OC)c(OC)c(OC)c3)C2=O)cc1 ?
Biofilm kill mix: 22

Results for CC#CP(=O)(OC)C(O)(CF)c1ccccc1 (stereo not given) ?
Biofilm kill mix: 19

How did CCc1c(C)nc(N)nc1N1N=C1SCCOc1ccccc1 do in these assays?
Biofilm kill mix: -4

How did CCOP(=O)(OCC)C(O)c1ccccc1 (stereo not given) do in these assays?
Biofilm kill mix: 21

What do the screens show for `CCN1C(=O)N(CC)C(=O)C2(Cc3ccccc3N3CCN(c4ccccc4)CC32)C1=O` (stereo not given)?
Biofilm kill mix: -7

In the list so far, these have a nitro group on carbon:
What do the screens show for `O=C1NC(=O)N(c2ccccc2)C(=O)/C1=C\c1ccc([N+](=O)[O-])s1`?
Biofilm kill mix: 26

What do the screens show for `CC1CCCN(C(=O)c2ccc(N3CC4CC(C3)c3cccc(=O)n3C4)c([N+](=O)[O-])c2)C1` (stereo not given)?
Biofilm kill mix: 12

Results for COc1ccc(NC(=O)c2cn(CCC#N)nc2-c2ccc([N+](=O)[O-])cc2)cc1 ?
Biofilm kill mix: 9

Results for CN(C)c1ccc(/C=C/[N+](=O)[O-])cc1 ?
Biofilm kill mix: -1

Next part.
What do the screens show for `COC(=O)C(O)(c1ccc(NC(=O)NC2CCCCC2)cc1)C(F)(F)F` (stereo not given)?
Biofilm kill mix: 10

Results for COc1ccccc1N1C(=O)NC(=O)/C(=C\c2cnn(-c3ccccc3)c2)C1=O ?
Biofilm kill mix: 17

How did Cc1cc(NC(=O)C(Cl)(Cl)Cl)no1 do in these assays?
Biofilm kill mix: 17

How did CCOC(=O)C(=CNc1ccc(C(O)(C(=O)OCC)C(F)(F)F)cc1C)C(=O)OCC (stereo not given) do in these assays?
Biofilm kill mix: 10

Results for CC(C)CN(CC(C)C)C(=O)C1C2c3ccccc3C(c3ccccc32)C1C(=O)O (stereo not given) ?
Biofilm kill mix: 60

Results for O=C1NC(=O)C(=Cc2ccc(OCCOc3ccc([N+](=O)[O-])cc3)cc2)C(=O)N1 ?
Biofilm kill mix: 21

How did CCOC(=O)C1(CCCc2ccccc2)CCN(C2CCCC2)CC1 do in these assays?
Biofilm kill mix: 13

What do the screens show for `N#CC1=C(N)Oc2c(c(=O)oc3ccccc23)C1c1ccc([N+](=O)[O-])o1` (stereo not given)?
Biofilm kill mix: 17

What do the screens show for `CCOc1ccc([N+](=O)[O-])cc1CNCCc1ccccc1`?
Biofilm kill mix: 9

What do the screens show for `O=C(NCCO)c1nsnc1NCCCl`?
Biofilm kill mix: 11

What do the screens show for `c1cc(C2N3CCCN2CC3)ccn1` (stereo not given)?
Biofilm kill mix: 13

Results for COc1ccc(OC)c(-n2c(O)c(C=Nc3c(C)n(C)n(-c4ccccc4)c3=O)c(=O)[nH]c2=O)c1 ?
Biofilm kill mix: 10

How did O=C(c1ccc2c(c1)OCO2)C1CCCN(CC2CCCCC2)C1 (stereo not given) do in these assays?
Biofilm kill mix: -6

Results for O=c1c2ccccc2nc(/C=C/c2ccc3c(c2)OCO3)n1-c1cccc(O)c1 ?
Biofilm kill mix: 15

Results for COc1ccc(C)cc1NC(=O)N1CCC2(CC1)OCCO2 ?
Biofilm kill mix: 5

Results for CN(c1ccc(OCC(=O)N2CCN(C/C=C/c3ccccc3)CC2)cc1)S(=O)(=O)c1cccs1 ?
Biofilm kill mix: 9

Results for COc1cccc(O)c1CN1CCCC(C(=O)c2ccccc2SC)C1 (stereo not given) ?
Biofilm kill mix: 2

Results for CC/C(=N\NC(=O)c1ccccc1O)c1c(O)n(Cc2ccccc2)c(=O)[nH]c1=O ?
Biofilm kill mix: 16

What do the screens show for `C#CCN1CCN(c2cccc(C(F)(F)F)c2)CC1`?
Biofilm kill mix: -2

How did Cc1cccc(-n2c(O)c(C=NCCN3CCCCC3)c(=O)[nH]c2=O)c1 do in these assays?
Biofilm kill mix: 27

What do the screens show for `Cc1ccc(-c2nc3ccccc3c(=O)n2-c2cccc(O)c2)cc1`?
Biofilm kill mix: 17

Results for CC1CN=C(NCc2ccc(F)cc2)S1 (stereo not given) ?
Biofilm kill mix: 14

How did COc1ccc(-n2c(O)c(C(C)=NCc3ccc4c(c3)OCO4)c(=O)[nH]c2=O)cc1 do in these assays?
Biofilm kill mix: 26

Results for CCOc1nc(NC(C)C)nc(N2CC3CC(C2)c2cccc(=O)n2C3)n1 (stereo not given) ?
Biofilm kill mix: 15

How did C=CCSc1nc2c(c(-c3ccsc3)c1C#N)CN(C)CC2 do in these assays?
Biofilm kill mix: 25

How did CCCC12CN3CCN(C1)CC(CCC)(C3)C2=O do in these assays?
Biofilm kill mix: 16

How did Cc1c(C=C2C(=O)N(C)C(=O)N(C)C2=O)c(=O)n(-c2ccccc2)n1C do in these assays?
Biofilm kill mix: -11

Results for CNC(C(=O)c1ccccc1)C(OC)c1cccc([N+](=O)[O-])c1 (stereo not given) ?
Biofilm kill mix: 18

What do the screens show for `O=C1CC(c2cccnc2)=NN1c1ccc(Cl)cc1Cl`?
Biofilm kill mix: 1

Results for O=c1c2ccccc2nc(Cc2ccccc2)n1-c1ccccc1O ?
Biofilm kill mix: 22

Results for O=c1[nH]c(CN2CC=C(c3ccccc3)CC2)nc2scc(-c3ccccc3)c12 ?
Biofilm kill mix: 0

Results for C/C(=N\N1CCCCCC1)c1c(O)n(-c2ccc(Cl)cc2)c(=O)[nH]c1=O ?
Biofilm kill mix: 23

How did O=c1[nH]c(=S)[nH]c(O)c1C(c1ccccn1)c1c(O)[nH]c(=S)[nH]c1=O do in these assays?
Biofilm kill mix: 17

What do the screens show for `O=P(NC(c1ccccc1)c1ccccc1)(Oc1ccccc1)Oc1ccccc1`?
Biofilm kill mix: 13

What do the screens show for `CS(=O)(=O)NCc1nnc2n1-c1ccc(Cl)cc1C(c1ccccc1)=NC2`?
Biofilm kill mix: 10

What do the screens show for `c1ccc2c(c1)[nH]c1cnccc12`?
Biofilm kill mix: 14

Results for COc1ccc(NC(c2ccccc2)P(=O)(Oc2ccccc2)Oc2ccccc2)cc1 (stereo not given) ?
Biofilm kill mix: 21

Results for O=[N+]([O-])c1ccc(C2C3C(c4ccccc4)=NC4(CCCC4)N32)cc1 (stereo not given) ?
Biofilm kill mix: 6

How did OCc1cnc[nH]1 do in these assays?
Biofilm kill mix: 5

How did O=C1NC(=S)NC(=O)C1=Cc1ccc2c(c1)CCN2CCCCl do in these assays?
Biofilm kill mix: 28

What do the screens show for `OC(c1cccc(Cl)c1)(c1cccc(Cl)c1)C1CN2CCC1CC2` (stereo not given)?
Biofilm kill mix: 18

Results for N#CCCn1cc(C(=O)Nc2ccccc2Br)c(-c2ccc3c(c2)OCCO3)n1 ?
Biofilm kill mix: 13

What do the screens show for `Cc1ccc(-n2cc(CNC(C)Cc3cnccn3)c(-c3cccc(C)c3)n2)cc1` (stereo not given)?
Biofilm kill mix: 12

Results for COc1ccc(CN2C(=O)NC(=O)/C(=C/c3ccoc3)C2=O)cc1 ?
Biofilm kill mix: 34

How did CCN(CC)C(=O)c1ccc(NC(=O)c2cccc(C(F)(F)F)c2)cc1 do in these assays?
Biofilm kill mix: 0

How did Fc1cccc(C2NCCc3[nH]cnc32)c1 (stereo not given) do in these assays?
Biofilm kill mix: 17

What do the screens show for `COc1ccccc1CN1CCN(C(=O)Cc2ccccc2)CC1`?
Biofilm kill mix: 13

What do the screens show for `N#CC1=C(N)Oc2c(c(=O)oc3ccccc23)C1c1ccccc1OC(=O)c1cccs1` (stereo not given)?
Biofilm kill mix: 11

Results for Cc1nc2ccccc2c(=O)n1-c1ccncc1 ?
Biofilm kill mix: 7

What do the screens show for `OCC[n+]1c2ccccc2nc2ccc(N3CCOCC3)cc21`?
Biofilm kill mix: 5

Gathered by group, the compounds so far with a COOH group
What do the screens show for `C=CCn1c(O)c(C(CC)=Nc2ccc(C(=O)O)cc2)c(=O)[nH]c1=O`?
Biofilm kill mix: 13

What do the screens show for `Cc1nn(Cc2ccccc2Cl)c(Cl)c1C(=O)O`?
Biofilm kill mix: 11

Results for CC(C)CN(CC(C)C)C(=O)C1C2c3ccccc3C(c3ccccc32)C1C(=O)O (stereo not given) ?
Biofilm kill mix: 60

(listing goes on)
How did Cc1ccc2c(c1)c(=O)c1c3n2CCN(CC#N)C3CC1 (stereo not given) do in these assays?
Biofilm kill mix: 23

Results for Cn1cccc1/C=C1\C(=O)NC(=O)N(Cc2ccccc2Cl)C1=O ?
Biofilm kill mix: inconclusive

How did Cc1c(C(c2ccc(Cl)cc2Cl)c2c(O)c3ccccc3oc2=O)c(=O)n(-c2ccccc2)n1C (stereo not given) do in these assays?
Biofilm kill mix: 11

Results for Cc1cccc(-n2c(=S)[nH]c3ccccc3c2=O)n1 ?
Biofilm kill mix: 18

Results for O=c1[nH]c(O)c(C=Nc2ccccc2Sc2ccccc2)c(=O)[nH]1 ?
Biofilm kill mix: 16

How did CCOC(=O)C(O)(c1ccc(N=c2ccccn2C)cc1)C(F)(F)F (stereo not given) do in these assays?
Biofilm kill mix: 32

How did Cc1nn(Cc2ccccc2)c(C)c1C=C1C(=O)NC(=S)NC1=O do in these assays?
Biofilm kill mix: -11

How did CN(C)c1ccc(C=C(C#N)C#N)cc1 do in these assays?
Biofilm kill mix: 12

How did CC(C)n1c(O)c(C=NCc2cccnc2)c(=O)[nH]c1=S do in these assays?
Biofilm kill mix: 15

How did Cc1nc2ccccc2c(=O)n1-c1ccc(Br)cn1 do in these assays?
Biofilm kill mix: 11

Results for CN1CCC2(CC1)C(C#N)=C(N)NC(S)=C2C#N ?
Biofilm kill mix: 7&26
